# DUX4 txn inh – DUX4-mediated transcription inhibition. 37,000 compounds, 0.8% hits. 293T-iDUX4 ZSCAN4-Gaussia luciferase reporter, 24 h; stronger effect = lower value. activity change, negative = inhibition, % (test concentration not listed);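 active means -10% or lower and over 25 points stronger than a control reporter; inconclusive means -10% or lower with a smaller gap; inactive means above -10%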;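 further: 0% = median of neutral control wells and -100% = median of positive control wells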
# DUX4 txn inh difference – further read-out of DUX4 txn inh, marked with its call; Gaussia minus Italica difference, %; measured here: selective DUX4 reporter inhibition;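 worked out from the two reporters; negative = selective loss of the DUX4 reporter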
# DUX4 txn inh control – second read-out of DUX4 txn inh, no call of its own (marks repeat the call); activity change, negative = inhibition, %; measured here: Italica tet-on control reporter;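 0 = neutral control and -100 = positive control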
# Numbers without * were called inactive; ? = inconclusive; nt = no result given. The list is partial; the hit share may differ from the screen's.
DUX4 txn inh	DUX4 txn inh difference	DUX4 txn inh control	smiles
-0.7	0.4	-1.1	C[C@@H]1CN([C@@H](C)CO)C(=O)Cc2cc(NC(=O)NC3CCCCC3)ccc2O[C@H]1CN(C)C(=O)Nc1ccc(C(F)(F)F)cc1
-1.3	0.9	-2.2	COc1ccc(S(=O)(=O)Nc2ccc3c(c2)C(=O)N([C@@H](C)CO)C[C@H](C)[C@@H](CN(C)S(=O)(=O)c2ccc(Cl)cc2)OCCCC[C@@H](C)O3)cc1
-3.7	-4.7	1.0	N#C[C@@H]1[C@H](c2ccc(C#Cc3cccc(F)c3)cc2)[C@@H](CO)N1C(=O)C1CC1
1.6	4.0	-2.4	O=C(NCC[C@H]1CC[C@H](NC(=O)c2cnccn2)[C@@H](CO)O1)c1ccc2c(c1)OCO2
6.7	4.7	1.9	O=C(C[C@@H]1CC[C@H]2[C@@H](COC[C@@H](O)CN2Cc2ccccc2)O1)N1CCOCC1
10.3	12.2	-1.9	C[C@@H]1CN([C@@H](C)CO)C(=O)CCCn2cc(nn2)CO[C@H]1CN(C)C(=O)CCCN(C)C
-1.1	-6.4	5.3	COc1ccc(C#Cc2ccc3c(c2)O[C@@H](CN(C)S(=O)(=O)c2ccccc2F)[C@H](C)CN([C@@H](C)CO)S3(=O)=O)cc1
14.0	9.3	4.8	O=C(C[C@H]1CC[C@@H]2[C@H](COC[C@@H](O)CN2S(=O)(=O)c2cccc(F)c2)O1)Nc1ccccc1
5.6	4.9	0.7	CCCNC(=O)N1CC2(C1)[C@H](c1ccccc1)[C@@H](CO)N2C(=O)c1cccnc1
?	nt	nt	COc1ccc(C#Cc2ccc([C@@H]3[C@@H](CO)N4CCCCN(S(=O)(=O)c5cn(C)cn5)C[C@H]34)cc2)cc1
-1.1	-0.9	-0.3	O=C(Cc1ccccc1)N1C[C@H]2[C@@H](c3ccccc31)[C@H](CO)N2C(=O)Nc1ccc(F)cc1
6.0	1.0	5.0	CCC(=O)Nc1ccc2c(c1)C(=O)N(C)C[C@H](OC)[C@@H](C)CN(Cc1nccs1)[C@@H](C)CO2
11.5	2.7	8.7	CCC(=O)N1CC2(CCN(Cc3nccs3)CC2)c2c(n(C)c3cc(OC)ccc23)[C@H]1CO
6.0	2.9	3.1	CCCNC(=O)N[C@@H]1CC[C@H](CCn2cc(C3CC3)nn2)O[C@@H]1CO
-0.9	-5.2	4.4	CCCNC(=O)N1[C@@H](CO)[C@@H](c2ccccc2)[C@@H]1CNC(=O)c1ccccc1
-4.3	-2.2	-2.1	CCCC#Cc1ccc([C@@H]2[C@@H](C#N)N(C(=O)C3CCCC3)[C@@H]2CO)cc1
-3.3	-4.6	1.4	CC=Cc1ccc2n(c1=O)C[C@H]1[C@H](CO)[C@@H](C(=O)NCC3CC3)[C@@H]2N1C(=O)C1CC1 (mixture of isomers)
0.6	2.6	-2.1	Cc1ccc(S(=O)(=O)Nc2ccc3c(c2)C(=O)N([C@@H](C)CO)C[C@H](C)[C@H](CN(C)C(=O)Nc2c(C)noc2C)O3)cc1
5.6	2.8	2.8	COC(=O)[C@H]1[C@H](CO)[C@H]2Cn3c(ccc(-c4cccc(F)c4)c3=O)[C@H]2N1CC1CC1
1.6	0.5	1.0	C[C@@H]1CN([C@H](C)CO)C(=O)CCCn2nncc2CO[C@@H]1CN(C)C(=O)c1cc(-c2ccccc2)on1
4.8	6.1	-1.2	CNC[C@H]1OCCCC[C@@H](C)Oc2ccc(N)cc2C(=O)N([C@@H](C)CO)C[C@@H]1C
-6.4	-0.5	-5.9	O=C(C[C@@H]1C[C@@H]2c3cc(NC(=O)Nc4ccc(C(F)(F)F)cc4)ccc3O[C@@H]2[C@@H](CO)O1)NCc1cc(F)ccc1F
-2.5	-4.8	2.3	CN(C[C@@H]1N[C@H](CO)[C@H]1c1ccc(C2=CCCC2)cc1)C(=O)c1cccc(F)c1
6.9	8.4	-1.5	COc1ccccc1S(=O)(=O)N1CC[C@@H]2[C@H]1c1cc(-c3ccc(C#N)cc3)ccc1N[C@@H]2CO
-2.3	-2.4	0.1	CO[C@H]1CN(C)C(=O)c2ccc(NC(=O)C3CC3)cc2OC[C@H](C)N(C(=O)c2cccnc2)C[C@@H]1C
4.5	0.2	4.3	COc1ccccc1-c1cccc(-c2nc(C(=O)N3CCCCC3)cc3c2[C@@H](CCO)N([S@](=O)C(C)(C)C)C3)c1
9.0	8.3	0.7	O=C(Nc1ccc(F)cc1)N1CC(=O)N2[C@H](CO)[C@H](c3ccc(Br)cc3)[C@@H]2C1
22.3	4.7	17.6	O=C(c1cccnc1)N1CCCCN2[C@H](CO)[C@@H](c3ccc(C#Cc4ccccn4)cc3)[C@@H]2C1
-7.9	-6.5	-1.3	O=C(Cc1cccnc1)N1[C@H](CO)[C@@H]2c3ccccc3NC[C@@H]21
0.2	3.4	-3.2	O=C(Nc1ccc(Cl)c(Cl)c1)N[C@@H]1CC[C@@H](CCNC(=O)c2ccc(F)cc2)O[C@@H]1CO
4.6	4.4	0.2	Cc1cccc(S(=O)(=O)N2C[C@H](O)COC[C@H]3O[C@@H](CC(=O)NCc4ccc5c(c4)OCO5)CC[C@@H]32)c1
-5.4	-4.9	-0.5	CN(C)CC(=O)N1[C@H](C#N)[C@H](c2ccc(C#CC3CCCCC3)cc2)[C@H]1CO
?	nt	nt	CN(C)C(=O)c1cccc(-c2ccc3c(c2)[C@@H]2[C@@H](CCN2C(=O)c2cccnc2)[C@@H](CO)N3)c1
-2.8	3.3	-6.1	C/C=C/c1ccc([C@H]2[C@@H](CO)N[C@@H]2CN(CC)C(=O)CN2CCOCC2)cc1
-2.4	3.5	-5.9	CCCNC(=O)[C@H]1[C@H](CO)[C@H]2Cn3c(cccc3=O)[C@H]2N1C(=O)CC1CC1
2.5	-3.8	6.3	CC[C@H]1C/C=C\C[C@H](CC)NC(=O)[C@@H](C)CC(=O)N1
2.3	4.7	-2.4	O=C([C@H]1[C@H](CO)[C@H]2Cn3c(cccc3=O)[C@H]2N1C(=O)CC1CC1)N1CCc2ccccc2C1
0.4	-4.8	5.2	O=C(C[C@H]1C=C[C@H](NS(=O)(=O)c2cccc(F)c2)[C@H](CO)O1)N1CCCCC1
?	nt	nt	COc1ccc2c3c([nH]c2c1)[C@@H](CO)N(CC1CC1)CC31CCN(C(=O)c2ccccc2F)CC1
2.6	4.2	-1.7	O=C(C[C@H]1CC[C@@H]2[C@H](COC[C@@H](O)CN2C(=O)Nc2cc(Cl)cc(Cl)c2)O1)N1CCOCC1

# Some of these compounds in order of length of the SMILES, smallest number first.
DUX4 txn inh	DUX4 txn inh difference	DUX4 txn inh control	smiles
9.0	8.3	0.7	O=C(Nc1ccc(F)cc1)N1CC(=O)N2[C@H](CO)[C@H](c3ccc(Br)cc3)[C@@H]2C1
?	nt	nt	COc1ccc2c3c([nH]c2c1)[C@@H](CO)N(CC1CC1)CC31CCN(C(=O)c2ccccc2F)CC1
?	nt	nt	CN(C)C(=O)c1cccc(-c2ccc3c(c2)[C@@H]2[C@@H](CCN2C(=O)c2cccnc2)[C@@H](CO)N3)c1
4.5	0.2	4.3	COc1ccccc1-c1cccc(-c2nc(C(=O)N3CCCCC3)cc3c2[C@@H](CCO)N([S@](=O)C(C)(C)C)C3)c1
-6.4	-0.5	-5.9	O=C(C[C@@H]1C[C@@H]2c3cc(NC(=O)Nc4ccc(C(F)(F)F)cc4)ccc3O[C@@H]2[C@@H](CO)O1)NCc1cc(F)ccc1F

# (more compounds)
DUX4 txn inh	DUX4 txn inh difference	DUX4 txn inh control	smiles
12.3	6.4	5.9	CCCNC(=O)[C@@H]1[C@@H](CO)[C@@H]2Cn3c(ccc(-c4cccc(OC)c4)c3=O)[C@H]1N2CCC
2.8	3.8	-1.0	Cc1ccc(NC(=O)Nc2ccc3c(c2)C(=O)N(C)[C@@H]2CC[C@H](CC(=O)O)O[C@@H]2CO3)cc1
-6.4	-9.9	3.5	O=C(Nc1ccccc1F)N1CC(=O)N2[C@H](CO)[C@@H](c3ccc(C#CC4CC4)cc3)[C@@H]2C1
5.1	3.8	1.3	CN1C(=O)c2cc(NC(=O)c3cccc(Cl)c3)ccc2OC[C@@H]2O[C@@H](CC(=O)NC3CCCCC3)CC[C@@H]21
5.7	-0.1	5.8	O=C(C[C@@H]1CC[C@H]2[C@@H](COC[C@@H](O)CN2C(=O)c2ccncc2)O1)NCc1cccc(F)c1
8.0	15.4	-7.4	Cc1noc(C)c1NC(=O)Nc1ccc2c(c1)C(=O)N([C@@H](C)CO)C[C@H](C)[C@@H](CN(C)C(=O)Cc1ccccc1)OCCCC[C@H](C)O2
?	nt	nt	Cc1cccc(-c2ccccc2[C@H]2[C@@H](C#N)N(c3ncc(-c4ccccc4)s3)[C@H]2CO)c1
?	nt	nt	O=C(C[C@@H]1CC[C@@H]2[C@H](COC[C@H](O)CN2C(=O)Nc2ccc(Cl)c(Cl)c2)O1)NCc1ccc(Cl)c(Cl)c1
?	nt	nt	O=C(Cc1ccncc1)Nc1ccc2c(c1)[C@@H]1C[C@H](CC(=O)N3CCc4ccccc4C3)O[C@@H](CO)[C@@H]1O2
4.7	2.1	2.6	COC(=O)C[C@H]1C[C@@H]2c3cc(NC(=O)Nc4ccccc4)ccc3O[C@@H]2[C@H](CO)O1
-3.2	-11.0	7.9	C[C@@H]1CN([C@H](C)CO)C(=O)c2c(c3ccccc3n2C)-c2ccccc2CO[C@@H]1CN(C)S(=O)(=O)c1ccsc1
6.1	0.5	5.6	O=C(c1cccc(F)c1)N1CC(=O)N2[C@@H](CO)[C@H](c3ccc(-c4ccccc4)cc3)[C@@H]2C1
-7.4	-8.0	0.6	CCC(=O)N1CC[C@@H]2[C@H]1c1cc(C#Cc3ccccc3F)ccc1N[C@@H]2CO
-7.8	-14.1	6.3	O=C(C[C@@H]1C[C@H]2c3cc(NC(=O)Nc4ccccc4F)ccc3O[C@H]2[C@H](CO)O1)NCC(F)(F)F
-0.7	3.0	-3.6	Cc1ccccc1-c1cnc2c(c1)C(=O)N([C@H](C)CO)C[C@H](C)[C@H](CN(C)Cc1ccccc1F)O2
-4.1	-4.5	0.3	C[C@@H]1CN([C@H](C)CO)C(=O)Cc2cc(NS(=O)(=O)c3ccc(F)cc3)ccc2O[C@@H]1CN(C)Cc1ccncc1
-7.8	-10.4	2.5	CC(C)CC#Cc1ccc([C@@H]2[C@H]3CN(C(=O)Nc4ccc(F)cc4)CC(=O)N3[C@H]2CO)cc1
-0.4	1.2	-1.5	COCC(=O)Nc1ccc2c(c1)C(=O)N(C)C[C@H](OC)[C@H](C)CN(Cc1cncnc1)[C@H](C)CO2
-8.0	-14.3	6.3	C[C@H]1CN([C@@H](C)CO)C(=O)c2c(c3ccccc3n2C)-c2ccccc2CO[C@@H]1CN(C)C
19.2	7.8	11.3	CCCC#Cc1ccc2c(c1)[C@@H]1[C@@H](CCN1S(=O)(=O)c1cn(C)cn1)[C@@H](CO)N2

# Some of these compounds in order of their number in DUX4 txn inh difference, ascending:
DUX4 txn inh	DUX4 txn inh difference	DUX4 txn inh control	smiles
-7.8	-14.1	6.3	O=C(C[C@@H]1C[C@H]2c3cc(NC(=O)Nc4ccccc4F)ccc3O[C@H]2[C@H](CO)O1)NCC(F)(F)F
-0.7	3.0	-3.6	Cc1ccccc1-c1cnc2c(c1)C(=O)N([C@H](C)CO)C[C@H](C)[C@H](CN(C)Cc1ccccc1F)O2
2.8	3.8	-1.0	Cc1ccc(NC(=O)Nc2ccc3c(c2)C(=O)N(C)[C@@H]2CC[C@H](CC(=O)O)O[C@@H]2CO3)cc1

# Remaining list, next part
DUX4 txn inh	DUX4 txn inh difference	DUX4 txn inh control	smiles
1.6	-2.0	3.6	COc1ccc(S(=O)(=O)N(C)C[C@@H]2Oc3ncc(C#CC(C)(C)O)cc3C(=O)N([C@H](C)CO)C[C@@H]2C)cc1
6.1	2.1	4.0	O=S(=O)(N[C@H]1CC[C@@H](CCn2cc(-c3cccnc3)nn2)O[C@H]1CO)c1ccc(Cl)cc1
-0.1	-0.7	0.6	CO[C@@H](CN(C)S(=O)(=O)c1ccccc1)[C@@H](C)CN(Cc1ccccc1Cl)[C@@H](C)CO
0.8	1.9	-1.2	CC(C)(O)C#Cc1cccc(-c2nc(C(=O)O)cc3c2[C@H](CCO)N(S(=O)C(C)(C)C)C3)c1 (stereo partly drawn)
?	nt	nt	COc1cccc(CN2[C@H](CO)[C@H](c3ccccc3)C23CN(C(=O)C2CCCCC2)C3)c1
?	nt	nt	COc1ccc2c3c([nH]c2c1)[C@@H](CO)N(C)CC31CN(S(=O)(=O)c2ccc(C)cc2)C1
5.0	4.9	0.1	C[C@@H]1CN([C@@H](C)CO)C(=O)c2cccc(NC(=O)Nc3ccc4c(c3)OCO4)c2O[C@H]1CN(C)Cc1ccc(C(=O)Nc2ccccc2N)cc1
-3.8	5.3	-9.2	CC(C)CC#Cc1ccc([C@@H]2[C@@H](CO)N3C(=O)CN(C(=O)NC(C)C)C[C@@H]23)cc1
-4.0	-5.4	1.4	O=C(C[C@H]1CC[C@H]2NC[C@@H](O)COC[C@@H]2O1)Nc1ccc(-c2ccccc2)cc1
1.1	-0.4	1.5	CCC(=O)Nc1ccc2c(c1)OC[C@@H](C)N(C(=O)c1ccncc1)C[C@@H](C)[C@@H](OC)CN(C)C2=O
3.7	0.2	3.6	CO[C@H]1CN(C)C(=O)c2ccc(NC(=O)CC(F)(F)F)cc2OC[C@H](C)N(C(=O)C2CCOCC2)C[C@H]1C
-8.1	3.3	-11.4	CN1C(=O)c2cc(NC(=O)Nc3ccccc3F)ccc2OC[C@H]2O[C@@H](CC(=O)NCc3ccc(-c4ccccc4)cc3)CC[C@@H]21
-0.2	0.1	-0.3	CCCNC(=O)N1C[C@@H]2[C@H](c3ccccc31)[C@H](CO)N2Cc1ccc2c(c1)OCO2
4.5	3.9	0.6	CN(C)C(=O)C[C@H]1CC[C@H](NC(=O)Nc2cccc(F)c2)[C@H](CO)O1
?	nt	nt	COc1ccccc1CN1CC[C@H]2[C@H](CO)Nc3ccc(-c4cccc(F)c4)cc3[C@H]21

# From PubChem BioAssay
